STK33 kinase inh = human STK33 kinase inhibition; Q9BYT3; purified STK33, MBP phosphorylation, ADP-Glo luminescence; inhibition, % at 10 µM; actives 0.073% (n = 320,000);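 active = inhibition at or above 25%, using the most active replicate where run in duplicate; inactive = inhibition below 25%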
Target sequence (Q9BYT3 whole entry, looked up): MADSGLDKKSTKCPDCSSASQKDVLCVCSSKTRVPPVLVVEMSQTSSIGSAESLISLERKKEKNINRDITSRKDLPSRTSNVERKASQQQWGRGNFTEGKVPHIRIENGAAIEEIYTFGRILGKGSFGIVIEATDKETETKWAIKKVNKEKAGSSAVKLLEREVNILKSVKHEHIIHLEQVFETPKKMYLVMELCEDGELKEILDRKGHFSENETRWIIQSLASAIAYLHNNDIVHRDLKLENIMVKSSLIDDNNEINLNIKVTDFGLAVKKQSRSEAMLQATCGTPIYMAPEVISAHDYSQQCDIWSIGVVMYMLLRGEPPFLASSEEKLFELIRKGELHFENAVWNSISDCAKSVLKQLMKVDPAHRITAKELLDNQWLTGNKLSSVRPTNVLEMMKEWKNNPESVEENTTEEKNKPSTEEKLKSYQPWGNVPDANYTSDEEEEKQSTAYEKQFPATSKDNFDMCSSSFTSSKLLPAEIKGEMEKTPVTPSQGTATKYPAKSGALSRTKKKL
The depositor's hits bear a star. This is a subset; most or all hits stand in other tables.

What do the screens show for `CC/C(=N/NC(=O)c1ccc(Br)o1)c1ccc(Cl)cc1`?
STK33 kinase inh: -0.9

What do the screens show for `Cc1ccc(-c2nc(CN(C)C3CCOCC3)c(C)o2)s1`?
STK33 kinase inh: -1.0

How did CCS(=O)(=O)N1CCC(C(=O)Nc2cc(Cl)ccc2O)CC1 do in these assays?
STK33 kinase inh: -0.1

Results for CC1CN(C(=O)COC(=O)c2ccc(F)cc2Cl)CC(C)O1 (configuration not stated) ?
STK33 kinase inh: -2.4

What do the screens show for `O=C(NCc1ccc(Cl)cc1Cl)C(=O)N1CCCCC1`?
STK33 kinase inh: -2.8

Results for O=C(NNS(=O)(=O)c1ccc(Br)cc1)c1ccccc1-n1cccc1 ?
STK33 kinase inh: 0.1

Results for CN(c1ccccc1)S(=O)(=O)c1ccc(C(=O)Nc2ccncc2)cc1 ?
STK33 kinase inh: 0.1

How did Cc1ccc(S(=O)(=O)NCCCNS(C)(=O)=O)cc1 do in these assays?
STK33 kinase inh: -0.7

What do the screens show for `CNC(=O)NC(=O)C(C)OC(=O)c1c(C)noc1C` (configuration not stated)?
STK33 kinase inh: 0.4

What do the screens show for `Cc1cc([N+](=O)[O-])nn1Cc1ccc(C(=O)N/N=C/c2ccc(N(C)C)cc2)cc1`?
STK33 kinase inh: 1.7

How did Cc1ccc(C)c(NC(=S)Nc2cccc3cnccc23)c1 do in these assays?
STK33 kinase inh: 5.0

How did Cc1ccc(NC(=O)c2cc([N+](=O)[O-])ccc2Cl)c(O)c1 do in these assays?
STK33 kinase inh: 0.2

Results for CCC(C)C(NC(=O)C1CCC(C)CC1)C(=O)NC(CCSC)C(=O)OC (configuration not stated) ?
STK33 kinase inh: -0.5

How did Cc1sc2c(c1C)CN(C1CC(C)(C)NC(C)(C)C1)CN2C(=O)c1ccco1 do in these assays?
STK33 kinase inh: 3.0

What do the screens show for `Cc1cc(C)nc(SCCn2c(N3CC(C)OC(C)C3)nc3c2c(=O)n(C)c(=O)n3C)n1` (configuration not stated)?
STK33 kinase inh: -2.1

The list goes on (7 carried over from the part before).
What do the screens show for `CNC(=O)NC(=O)C(C)OC(=O)c1c(C)noc1C` (configuration not stated)?
STK33 kinase inh: 0.4

What do the screens show for `Cc1cc([N+](=O)[O-])nn1Cc1ccc(C(=O)N/N=C/c2ccc(N(C)C)cc2)cc1`?
STK33 kinase inh: 1.7

How did Cc1ccc(C)c(NC(=S)Nc2cccc3cnccc23)c1 do in these assays?
STK33 kinase inh: 5.0

How did Cc1ccc(NC(=O)c2cc([N+](=O)[O-])ccc2Cl)c(O)c1 do in these assays?
STK33 kinase inh: 0.2

Results for CCC(C)C(NC(=O)C1CCC(C)CC1)C(=O)NC(CCSC)C(=O)OC (configuration not stated) ?
STK33 kinase inh: -0.5

How did Cc1sc2c(c1C)CN(C1CC(C)(C)NC(C)(C)C1)CN2C(=O)c1ccco1 do in these assays?
STK33 kinase inh: 3.0

What do the screens show for `Cc1cc(C)nc(SCCn2c(N3CC(C)OC(C)C3)nc3c2c(=O)n(C)c(=O)n3C)n1` (configuration not stated)?
STK33 kinase inh: -2.1

How did CC(C)c1ccc(Nc2nc(Cl)nc(NCCO)n2)cc1 do in these assays?
STK33 kinase inh: 1.6

What do the screens show for `COc1cc(/C=C2/C(=O)NN(c3cccc(Cl)c3)C2=O)cc(Br)c1O`?
STK33 kinase inh: 4.2

What do the screens show for `O=C(O)Cc1ccc2sc(-c3ccccc3)nc2c1`?
STK33 kinase inh: 7.8

What do the screens show for `Cc1cc(C(=O)Nc2nnc(C3CCCCC3)s2)cs1`?
STK33 kinase inh: -0.1

How did COCCCNC(=O)C1CCN(C(=O)Nc2ccc(Cl)cc2)CC1 do in these assays?
STK33 kinase inh: 0.5

Results for CCOC(=O)c1c(/N=C/C2C(=O)CC(C)(C)CC2=O)sc2c1CCCC2 ?
STK33 kinase inh: -0.4

Results for O=C(CSc1nnc(Cc2ccccc2)n1Cc1ccco1)NC1CCCC1 ?
STK33 kinase inh: -0.5

How did COc1ccc(S(=O)(=O)N2CCCC2CNC(=O)C(=O)NCCc2ccccc2)cc1 (configuration not stated) do in these assays?
STK33 kinase inh: -0.3

What do the screens show for `O=C(Nc1ccccc1)N(CCc1ccncc1)C1CCCCC1`?
STK33 kinase inh: -1.5

What do the screens show for `Cn1c(=NC(=O)CSCC(=O)N2CCCC2)sc2ccccc21`?
STK33 kinase inh: 0.0

Results for O=C(Nc1ccc(F)cc1)c1cccnc1N1CCOCC1 ?
STK33 kinase inh: 3.3

How did Cc1ccc(C)c(NC(=O)CSc2nnc(CCCCCNC(=O)OC(C)(C)C)o2)c1 do in these assays?
STK33 kinase inh: 0.0

How did CN(Cc1ccccc1)C(=O)CN(c1ccc(F)cc1)S(=O)(=O)c1ccc2c(c1)OCCO2 do in these assays?
STK33 kinase inh: 0.4

Results for C[C@H](NC(=O)Nc1cccc(C(F)(F)F)c1)C(=O)O ?
STK33 kinase inh: -3.2

How did COc1ccc(/C=N/NC(=O)c2ccoc2C)cc1COc1c(C)cccc1C do in these assays?
STK33 kinase inh: -2.9

What do the screens show for `CC1CC(=O)Nc2ccccc2N1C(=O)Nc1ccc(F)cc1` (configuration not stated)?
STK33 kinase inh: -2.2

What do the screens show for `CCN(CC)CCn1c2c(c(SCC(=O)NCc3ccccc3)nc1=O)CCCC2`?
STK33 kinase inh: -1.2

What do the screens show for `O=C(COC(=O)c1ccc(Cl)nc1)Nc1ccccc1OC(F)F`?
STK33 kinase inh: -2.3

How did CCOC(=O)c1c(C)[nH]c(C(=O)C(C)OC(=O)c2oc3ccccc3c2COC)c1C (configuration not stated) do in these assays?
STK33 kinase inh: 0.9

Results for CCCNC(=O)[C@H]1N2C(=O)c3c(ccc(OC)c3OC)C2SC1(C)C (some centres not stated) ?
STK33 kinase inh: -0.4

What do the screens show for `Cc1ccc(CNC(=O)COc2ccc3c(c2)CCC3)cc1`?
STK33 kinase inh: -4.1

Results for CCc1nccn1S(=O)(=O)c1ccc(OC)c(OC)c1 ?
STK33 kinase inh: -0.7

How did Cc1cc(NC(=O)CCN2C(=O)C3C4CCC(C4)C3C2=O)c(C)cc1Br (configuration not stated) do in these assays?
STK33 kinase inh: 0.5

How did CC1(C)Cc2cccc(OCC(=O)N3CCN(c4ccc([N+](=O)[O-])cc4)CC3)c2O1 do in these assays?
STK33 kinase inh: -0.5

How did COC(=O)CNC(=O)COC(=O)/C=C/c1ccc(F)cc1 do in these assays?
STK33 kinase inh: -0.8

How did Cc1oc(/N=C/c2ccc3c(c2)OCO3)c(C#N)c1C do in these assays?
STK33 kinase inh: -0.9

Results for CCCCNC(=O)CCn1c(=O)c2ccccc2n(Cc2ccccc2C)c1=O ?
STK33 kinase inh: -0.2

What do the screens show for `Cc1cc(NC(=O)C2C3C(=O)N(CC4CCCO4)C(C(=O)NCc4ccccc4)C34C=CC2(C)O4)no1` (configuration not stated)?
STK33 kinase inh: -2.0

What do the screens show for `Cc1ccc2nc(Cl)c(CN(C(=O)c3cnccn3)C3CCCCC3)cc2c1`?
STK33 kinase inh: 0.0

Results for CCOc1ccc(C(C(=O)NC(C)(C)C)N(CCOC)C(=O)CCC(=O)Nc2nccs2)cc1 (configuration not stated) ?
STK33 kinase inh: 0.1

How did Cc1cccn2c(=O)c(/C=C(\C#N)C(=O)NCc3ccco3)c(N3CCCCCC3)nc12 do in these assays?
STK33 kinase inh: 0.0

What do the screens show for `COc1ccc(Cl)cc1NC(=O)CSc1nnc(Cc2cccn2C)n1-c1ccc(F)cc1`?
STK33 kinase inh: 1.3

What do the screens show for `CC(C)(C)NC(=O)CSc1nc(N)cc(=O)[nH]1`?
STK33 kinase inh: 0.4

How did CN(C)C(=O)c1ccc(NC(=O)c2ccccc2Sc2ccccc2C#N)cc1 do in these assays?
STK33 kinase inh: -1.4

What do the screens show for `COc1ccc(-c2noc(-c3ccc(Cl)cc3)n2)cc1`?
STK33 kinase inh: -1.0

How did Cc1cccc(C)c1NC(=O)CCCSc1nnc(-c2ccco2)n1-c1ccccc1 do in these assays?
STK33 kinase inh: -0.8

How did COc1ccc(-n2nnnc2SCC(=O)Nc2cc(OC)c([N+](=O)[O-])cc2C)cc1 do in these assays?
STK33 kinase inh: -0.6

Results for Cc1cccc(C)c1OCC(=O)N1CC2(C)CC1CC(C)(C)C2 (configuration not stated) ?
STK33 kinase inh: 0.0

What do the screens show for `COc1ccc(CNC(C)C(=O)Nc2ccc3ccccc3c2)cc1OC` (configuration not stated)?
STK33 kinase inh: -0.5

Results for CCC(C)NC(=O)CSc1nc2ccsc2c(=O)n1-c1ccc(OC)cc1 (configuration not stated) ?
STK33 kinase inh: 0.0

How did Cc1ccc(NC(=O)/C(=C\c2cccnc2)NC(=O)c2ccccc2)cc1 do in these assays?
STK33 kinase inh: -0.9

What do the screens show for `COc1ccccc1NC(=O)C1=C(C)Nc2nnnn2C1c1cccc(Br)c1` (configuration not stated)?
STK33 kinase inh: -0.6

How did Cc1ccc(NC(=O)CN2C(=O)C(C)Oc3ccccc32)nc1 (configuration not stated) do in these assays?
STK33 kinase inh: 0.0

Results for CC(OC(=O)c1ccc(-c2ccc([N+](=O)[O-])cc2)o1)C(=O)NC(N)=O (configuration not stated) ?
STK33 kinase inh: -0.5

How did COCCN(C(=O)COC(=O)c1ccc(C)s1)c1c(N)n(Cc2ccccc2)c(=O)[nH]c1=O do in these assays?
STK33 kinase inh: -0.1

What do the screens show for `COc1ccc(/C(C)=N/N2C(C)CCCC2C)c(OC)c1` (configuration not stated)?
STK33 kinase inh: -2.4

Results for Nc1ccccc1Sc1ccc(C(F)(F)F)cc1[N+](=O)[O-] ?
STK33 kinase inh: -0.4

What do the screens show for `CCCc1nnc(SCC(=O)N2C(C)CCCC2C)n1CC` (configuration not stated)?
STK33 kinase inh: -0.5

Results for COc1ccc(NC(C)=O)cc1NC(=O)c1ccc(Cl)cc1 ?
STK33 kinase inh: 0.7

Results for CCN(CC(=O)NCc1cccs1)C(=O)c1ccc([N+](=O)[O-])o1 ?
STK33 kinase inh: -1.1

How did Cc1cc(=O)oc(C)c1C(=O)NCC(C)NC(=O)c1c(C)cc(=O)oc1C (configuration not stated) do in these assays?
STK33 kinase inh: 0.7

What do the screens show for `CCCCN1C(=O)C(=O)N(CC(=O)N2CCN(c3ccccc3)CC2)C1=O`?
STK33 kinase inh: -2.2

How did OC(COc1ccc(Cl)cc1Cl)CN1CCc2ccccc2C1 (configuration not stated) do in these assays?
STK33 kinase inh: -2.3

Results for CN(C)c1nc(Nc2ccc(Cl)c(Cl)c2)nc(N(C)C)n1 ?
STK33 kinase inh: -1.0

Results for O=C(CN1C(=O)c2cccc3cccc1c23)Nc1ccc2c(c1)OCO2 ?
STK33 kinase inh: -1.4

How did Cc1nn(-c2ccc(Br)cc2)c(=O)c2ccccc12 do in these assays?
STK33 kinase inh: 0.5

How did CCc1ccc2oc(-c3cccc(N)c3)nc2c1 do in these assays?
STK33 kinase inh: 0.9

What do the screens show for `CCOC(=O)c1sc(NC(=O)Nc2ccccc2)cc1C`?
STK33 kinase inh: 0.2

How did Cn1c(=O)c(=O)n(C)c2cc(S(=O)(=O)N3CCCC3C(=O)Nc3ccccc3F)ccc21 (configuration not stated) do in these assays?
STK33 kinase inh: -0.3

How did CCc1ccc(OCC(=O)Oc2ccc([N+](=O)[O-])cc2)cc1 do in these assays?
STK33 kinase inh: -0.5

Structural class: the compounds so far with a cyano group.
How did Cc1oc(/N=C/c2ccc3c(c2)OCO3)c(C#N)c1C do in these assays?
STK33 kinase inh: -0.9

How did Cc1cccn2c(=O)c(/C=C(\C#N)C(=O)NCc3ccco3)c(N3CCCCCC3)nc12 do in these assays?
STK33 kinase inh: 0.0

How did CN(C)C(=O)c1ccc(NC(=O)c2ccccc2Sc2ccccc2C#N)cc1 do in these assays?
STK33 kinase inh: -1.4

Later entries.
What do the screens show for `CCOC(=O)Cn1nnnc1CN(Cc1cccs1)Cc1cc2cc(C)cc(C)c2[nH]c1=O`?
STK33 kinase inh: 2.0

What do the screens show for `Cc1ccc(NC(=O)CSc2cccc3cccnc23)c(C)c1`?
STK33 kinase inh: -1.8

Results for Cc1nn(-c2ccccc2)c(Cl)c1C(=O)OC(C)C(=O)Nc1ccc2c(c1)OCO2 (configuration not stated) ?
STK33 kinase inh: -0.4

What do the screens show for `COc1ccc(OCCCCc2c(C)n[nH]c2C)cc1`?
STK33 kinase inh: 0.0

What do the screens show for `Cc1nnc(NC(=O)C2CC(=O)N(Cc3ccccc3)C2)s1` (configuration not stated)?
STK33 kinase inh: -0.9

How did CCc1nc(NCCCCCO)c2nnn(Cc3ccccc3F)c2n1 do in these assays?
STK33 kinase inh: -0.1

How did Cc1ccc(NC(=O)Cn2c(/C=C/c3ccccc3)nc3ccccc32)cc1C do in these assays?
STK33 kinase inh: -1.0

Results for Cc1cc(Cl)ccc1OCC(O)CNCCc1ccc(S(N)(=O)=O)cc1 (configuration not stated) ?
STK33 kinase inh: -1.2

How did CCn1c(COc2ccc(C)cc2)nc2ccccc21 do in these assays?
STK33 kinase inh: 0.8

Results for COc1ccc(-c2n[nH]c(=S)n2-c2ccc3c(c2)OCCO3)cc1OC ?
STK33 kinase inh: -0.5

What do the screens show for `CN(C)c1nc(N)nc(Cn2ccnc2)n1`?
STK33 kinase inh: -1.7

What do the screens show for `Cc1ccccc1-c1nc2sc(-c3ccccc3)cc2c(=O)o1`?
STK33 kinase inh: -0.4

Results for COc1ccc(/C=C/C(=O)OCC(=O)NC(=O)NC(C)(C)C)cc1 ?
STK33 kinase inh: -1.5

Results for Cc1ccc(/C=C/C(=O)NC2CCCCCCC2)o1 ?
STK33 kinase inh: -0.2

What do the screens show for `COc1ccc(C(=O)OC(C)C(=O)NC2CCCCC2C)cc1S(=O)(=O)N1CCOCC1` (configuration not stated)?
STK33 kinase inh: -0.8

Results for O=C(NC1CCCCC1)c1ccc(S(=O)(=O)N2CCCCC2)cc1 ?
STK33 kinase inh: -0.2

How did NS(=O)(=O)c1ccc(NC(=O)COC(=O)C2(c3ccccc3F)CCCC2)cc1 do in these assays?
STK33 kinase inh: 0.7

Results for COc1ccc(NC(=O)CN2C(=O)NC3(CCCC3)C2=O)cc1Cl ?
STK33 kinase inh: -0.1

How did CCOCCCNCc1ccc(OCCC(C)C)c(OC)c1 do in these assays?
STK33 kinase inh: -0.3

What do the screens show for `CS(=O)(=O)N(CCc1ccccc1)CC(=O)NCc1ccccc1Cl`?
STK33 kinase inh: -1.7

Results for COCCNC(=S)N/N=C/c1ccc(-c2ccc([N+](=O)[O-])cc2)o1 ?
STK33 kinase inh: -3.1

How did CC1CN(CC(O)COc2ccc(C(=O)c3ccccc3)cc2)CC(C)O1 (configuration not stated) do in these assays?
STK33 kinase inh: 0.7

Bioassay records: PubChem BioAssay, Broad Institute
